KCNQ2 pot: enhances the rat KCNQ2 potassium channel | O88943 | 0.54% of 310,000 active | CHO-K1 KCNQ2, FluxOR thallium flux fluorescence; stronger effect = higher value | B-score at 10 µM;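 active = fluorescence ratio B-score at least 3 SD of library B-scores, with initial fluorescence B-score within 3 SD, cut at about 5.3 in these data; same plate scores as AID 2156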;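 also: B-score of peak minus minimum over baseline fluorescence ratio after K+ and Tl+ stimulus; positive B-score means potentiation of KCNQ2 with more thallium influx and brighter signal; only the inactives scoring about 0 or higher are listed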
Target sequence (O88943 whole entry, looked up): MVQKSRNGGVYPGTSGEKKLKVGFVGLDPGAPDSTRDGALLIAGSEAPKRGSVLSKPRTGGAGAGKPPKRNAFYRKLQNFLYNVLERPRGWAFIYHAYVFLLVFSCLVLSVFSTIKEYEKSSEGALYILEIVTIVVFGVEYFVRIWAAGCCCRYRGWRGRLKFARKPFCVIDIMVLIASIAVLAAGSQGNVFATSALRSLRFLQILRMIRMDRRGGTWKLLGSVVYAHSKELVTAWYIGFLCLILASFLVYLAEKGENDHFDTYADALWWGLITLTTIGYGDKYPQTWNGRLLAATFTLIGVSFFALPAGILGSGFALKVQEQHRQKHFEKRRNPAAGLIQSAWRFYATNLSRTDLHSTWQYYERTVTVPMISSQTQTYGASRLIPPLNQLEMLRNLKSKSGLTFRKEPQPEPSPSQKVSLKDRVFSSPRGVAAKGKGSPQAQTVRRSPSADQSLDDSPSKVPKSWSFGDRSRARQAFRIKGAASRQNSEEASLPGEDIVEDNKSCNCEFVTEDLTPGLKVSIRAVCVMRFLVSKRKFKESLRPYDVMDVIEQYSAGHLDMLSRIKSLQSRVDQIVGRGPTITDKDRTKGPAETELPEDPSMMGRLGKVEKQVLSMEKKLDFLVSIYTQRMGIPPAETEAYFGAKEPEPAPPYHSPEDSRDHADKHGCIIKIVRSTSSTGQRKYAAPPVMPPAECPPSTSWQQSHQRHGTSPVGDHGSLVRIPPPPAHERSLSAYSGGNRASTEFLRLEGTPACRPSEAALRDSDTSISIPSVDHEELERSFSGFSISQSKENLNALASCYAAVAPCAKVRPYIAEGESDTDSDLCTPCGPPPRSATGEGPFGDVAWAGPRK
KCNQ2 pot baseline: recorded beside KCNQ2 pot, whose call it bears; B-score; compound at 10 µM; measured here: initial fluorescence intensity artifact check;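 brightness before thallium and not channel activity; 0 = typical well and far values either way flag optical interference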
Numbers without * were called inactive. These rows are one share of the data; rates above refer to the full screens.

Second line of a record: KCNQ2 pot | KCNQ2 pot baseline
(1) CCCCC(NC(=O)COc1cc2c(c3oc(=O)cc(C)c13)CCC(C)(C)O2)C(=O)O (stereo not drawn)
  0.31 | 0.42
(2) COc1cccc(NC(=O)C2CCOC2=O)c1 (stereo not drawn)
  0.97 | -0.36
(3) O=C(OCCOCCN=C1NS(=O)(=O)c2ccccc21)c1ccncc1
  0.05 | 0.62
(4) Cc1ccc(CSc2nc(N)cc(N)n2)cc1
  1.5 | -1.7
(5) O=c1c2[nH]c3ccccc3c2ncn1CCN1CCCCC1
  0.8 | 2
(6) COC(=O)c1ccc2nc(NC(=O)COC(=O)CSc3nc(C)cc(C)n3)sc2c1
  1.9 | 2.1
(7) O=C(CSc1nc2ccccc2c(=O)n1-c1ccc(Cl)cc1)N/N=C/C=C/c1ccccc1[N+](=O)[O-]
  0.4 | -0.29
(8) COC(=O)c1[nH]c2cccc(OC)c2c1NC(=O)CCN1CCN(c2ccccc2OC)CC1
  0.07 | -0.97
(9) Cc1ccc(NC(=O)COC(=O)c2ccc([N+](=O)[O-])o2)cc1S(=O)(=O)N1CCCCCC1
  1.6 | -0.79
(10) CCOc1ccc(NC(=O)CN(C)C(=O)Cn2cnc3c2c(=O)n(C)c(=O)n3C)cc1OCC
  0.01 | 0.4
(11) Cc1ccn2cc(CCNC(=O)CC3CCCCC3)nc2c1
  0.73 | 0.2
(12) S=C(N/N=C/c1ccc(Cl)c(Cl)c1)Nc1ccccc1Cl
  0.27 | -1.2
(13) CCc1noc(C)c1C(=O)Nc1ccc(Cl)c(S(=O)(=O)N2CCCCC2)c1
  1.4 | -1.5
(14) Cc1ccc(N=C2C(=O)Nc3ccccc32)c(C)c1
  1.4 | 0.84
(15) Cc1ccc(NC(=O)CN(C)S(=O)(=O)c2ccc3c(c2)n(C)c(=O)c(=O)n3C)cc1
  0.01 | -0.55
(16) CC(C)N(C(=O)COC(=O)c1cc(Cl)cc(Cl)c1N)C(C)C
  0.04 | 1.4
(17) O=C(Cn1nc(-c2ccccc2Cl)ccc1=O)Nc1ccc(Br)cc1
  4.5 | -0.49
(18) COc1ccc(NC(=S)N2CCC(N(C)CC3CCCO3)CC2)cc1Cl (stereo not drawn)
  0.27 | 1.3
(19) COc1cc(C2NC(=O)NC(C)=C2C(=O)Nc2cccc(C)c2C)cc(OC)c1OC (stereo not drawn)
  0.02 | -0.09
(20) Cc1cc(C(=O)CSc2nc(N)cc(=O)[nH]2)c(C)n1-c1cccc(F)c1
  0.03 | 0.1
(21) O=S(=O)(NCc1ccccc1Cl)c1ccc(-n2cnnn2)cc1
  0.03 | 0.74
(22) O=C(CN(CC1CCCO1)C(=O)CNS(=O)(=O)c1ccc(Cl)cc1)NCC1CCCO1 (stereo not drawn)
  3.1 | -4.3
(23) CC1=CC(=C(C#N)C#N)C=C(C)N1CCN1CCN(C(=O)Nc2ccc(Cl)c(Cl)c2)CC1
  1.6 | -1.5
(24) CC1CCCN(CC(=O)Nc2ccc(S(=O)(=O)NC3CCCCC3)cc2)C1 (stereo not drawn)
  0.59 | -0.98
(25) COc1ccccc1N(C)S(=O)(=O)c1ccc(Cl)c(C(=O)N2CCC(C(N)=O)CC2)c1
  0.9 | 2.8
(26) COc1ccc(C2=NCC(CSc3nccc(=O)[nH]3)S2)cc1 (stereo not drawn)
  1.5 | -2
(27) Cc1ccccc1OCCCCN1CCCCC1
  1.4 | -0.58
(28) O=C(O)c1cccc(Cn2c(Cl)c(/C=N/Nc3ccccc3)sc2=O)c1
  1.6 | -1.7
(29) O=C(Nc1c(Cl)cc(Cl)cc1C(=O)NCCN1CCOCC1)c1ccc(Cl)cc1Cl
  0.52 | 0.86
(30) Cn1c(/C(C#N)=C(\O)COc2ccc3ccccc3c2)nc2ccccc21
  0.41 | 0.41

Full records, looked up by structure:
Cc1ccccc1OCCCCN1CCCCC1 reads KCNQ2 pot: 1.4; KCNQ2 pot baseline: -0.58
O=C(CSc1nc2ccccc2c(=O)n1-c1ccc(Cl)cc1)N/N=C/C=C/c1ccccc1[N+](=O)[O-] reads KCNQ2 pot: 0.4; KCNQ2 pot baseline: -0.29
O=S(=O)(NCc1ccccc1Cl)c1ccc(-n2cnnn2)cc1 reads KCNQ2 pot: 0.03; KCNQ2 pot baseline: 0.74

More compounds follow.
Second line of a record: KCNQ2 pot | KCNQ2 pot baseline
(31) c1ccc(CCNc2ncnc3sccc23)nc1
  1.3 | 0.87
(32) CSc1ccc(/C=N/NC(=O)c2sccc2C)cc1
  1.4 | 0.43
(33) Cc1ccc(S(=O)(=O)/N=C2/NC(=O)/C(=C/c3ccncc3)S2)cc1
  0.01 | -0.17
(34) O=C(c1ccco1)N1CCN(S(=O)(=O)c2ccc(S(=O)(=O)NC3CCCC3)cc2)CC1
  2 | -0.57
(35) O=C(Cn1nnc(-c2ccccc2NC(=O)c2ccccc2)n1)Nc1ccc2c(c1)OCCO2
  1.2 | 0.88
(36) OCCC1CN(Cc2cnc(N3CCOCC3)s2)CCN1C1CCCC1 (stereo not drawn)
  1.9 | 0.01
(37) CCOC(=O)Cc1csc(NC(=O)CSc2nncn2C)n1
  0.07 | 2.2
(38) COc1ccccc1C(=O)Nc1nnc(-c2ccc(F)cc2)o1
  0.44 | -0.15
(39) Cc1ccc2cc(C#N)c(SCC(=O)NCc3ccco3)nc2c1
  0.57 | -0.01
(40) CCOc1ccc(C2=Nn3c(nnc3-c3ccco3)SC2)cc1
  0.04 | -0.84
(41) O=C(N/N=C/c1ccc2c(c1)OCO2)C(=O)Nc1ccccc1Cl
  0.97 | -1
(42) CC(C)NC(=O)NNc1c(Cl)cncc1Cl
  0.63 | 0.27
(43) COC(=O)c1cc(-c2ccccc2)n(CCN)c1C
  0.08 | -0.11
(44) COc1cc(NC(=O)COC(=O)CNC(=O)c2ccc(C)s2)cc(OC)c1
  1.4 | 1.2
(45) O=C1C2C3C=CC(C3)C2C(=O)N1CCCCCCN1C(=O)C2C3C=CC(C3)C2C1=O (stereo not drawn)
  0.01 | 1.4
(46) CCCCn1c(N)c(N(CC)C(=O)c2cc(C)cc(C)c2)c(=O)[nH]c1=O
  0.11 | -0.7
(47) Cc1ccccc1OCCCC(=O)NC1CCCCC1
  0.05 | 0.23
(48) CC1C(=O)N2CCCc3cc(S(=O)(=O)NCc4ccc(F)cc4)cc1c32 (stereo not drawn)
  0.24 | 0.06
(49) COc1ccc(/C=C2/SC(=S)N(NS(=O)(=O)c3ccccc3)C2=O)cc1
  3.5 | -0.99
(50) Cc1ccc(NC(=O)CCNC(=O)c2ccc([N+](=O)[O-])cc2)cc1S(=O)(=O)N(C)C
  2.2 | 0.76
(51) Cc1ccc(S(=O)(=O)N2CCCCC2)cc1NC(=O)COc1ccccc1F
  1.2 | -1.7
(52) CCCC1=C(C(=O)OCC)C(c2ccc(N(C)C)cc2)n2ncnc2N1 (stereo not drawn)
  0.52 | 0.5
(53) Cc1c(C(=O)N/N=C/c2cccs2)nnn1-c1nonc1N
  0.58 | 1
(54) O=C(O)c1cc(S(=O)(=O)N(Cc2ccccc2)c2ccccc2Cl)ccc1Cl
  0.28 | -0.46
(55) CCOc1ccc(S(=O)(=O)N2CCCC(C(=O)NCc3ccccc3)C2)cc1 (stereo not drawn)
  0.6 | 0.38
(56) CCCC[N+](C)(C)CCC(=O)NC(C)(C)CS(=O)(=O)[O-]
  1 | 0.09
(57) O=C(O)C1CC=CCC1C(=O)Nc1cc(Cl)ccc1Cl (stereo not drawn)
  1.1 | 0.78
(58) O=C(NCc1ccc(F)cc1)c1cnc(-c2ccccn2)nc1C(F)(F)F
  2 | -0.01
(59) Cc1cccc(-c2nc3ccccc3c(=O)n2NC(=O)Cc2ccc(Cl)cc2)c1
  27* | -2*
(60) CS(=O)(=O)NNC(=O)CN1C(=O)C2C3C=CC(C3)C2C1=O (stereo not drawn)
  0.76 | 0.21
(61) CCOc1ccccc1NC(=O)CSc1nnc(CNC(=O)c2ccccc2F)o1
  0.55 | 1.4
(62) COC(=O)c1cc2ccccn2c2c(C(=O)OC)c(C(=O)OC)cc1-2
  1.8 | 0.29
(63) O=C(O)C1CCN(c2c([N+](=O)[O-])cc(C(F)(F)F)cc2[N+](=O)[O-])CC1
  0.74 | 0.55
(64) COc1ccc(/C(N)=N/OC(=O)C2CCCCC2)cc1
  0.63 | 0.04
(65) COc1ccccc1N(CC(=O)N1CCCCC1)S(=O)(=O)c1ccccc1
  0.05 | 0.62
(66) CCOc1ccc(C2c3c(oc4ccccc4c3=O)C(=O)N2c2ccc(C)cn2)cc1OC (stereo not drawn)
  0.2 | 1.3
(67) Cc1cc(Oc2ccc(N)cn2)cc(C)c1Cl
  0.02 | 1.4
(68) O=c1c2ccccc2cnn1Cc1n[nH]c(=S)n1C1CC2CCC1C2 (stereo not drawn)
  0.05 | 0.05
(69) CCc1cc2c(=O)c(-c3ccc(F)cc3)c(C(F)(F)F)oc2cc1OCC(=O)O
  0.76 | -2.8
(70) COc1ccc(C(=O)OCC(=O)Nc2ccc(F)c(F)c2F)cc1OC
  1.3 | -0.77
(71) COCCN1CC(CNC(=O)c2cc(COc3ccccc3SC)on2)CC1=O (stereo not drawn)
  0.62 | -0.14
(72) CCc1cc(C(=O)OC)c(N2C(=O)C3C4C=CC(C4)C3C2=O)s1 (stereo not drawn)
  0.05 | 1.9
(73) Cc1cccn2c(=O)c(C=NCc3ccccc3)c(NCCO)nc12
  0.15 | -0.36
(74) O=C(CCNS(=O)(=O)c1ccccc1)NNC(=O)c1csc(N2CCOCC2)n1
  0.51 | 1.1
(75) Cc1ccc2c(C)nc(N/C(N)=N/S(=O)(=O)c3ccccc3)nc2c1
  0.62 | 0.35
(76) O=C1CCc2cc(S(=O)(=O)N3CCC(C(=O)NC4CCCC4)CC3)ccc2N1
  1.1 | 0.48
(77) COC(=O)CNC(c1ccccc1)c1cc(Br)ccc1NC(=O)CCN1CCOCC1 (stereo not drawn)
  0.01 | 1.4
(78) CC(=O)Nc1ccc2c(c1)OCCO2
  0.6 | -0.67
(79) COc1cccc(NC(=S)N/N=C2\CC(C)(C)Oc3ccc(O)cc32)c1
  0.58 | -1.5
(80) CC(C)(C)c1[nH]nc2c1C(c1ccsc1)C(C#N)=C(N)O2 (stereo not drawn)
  0.85 | 1.2
(81) Cc1cc(C)nc(Nc2ccccc2Br)n1
  0.01 | 0.85
(82) COc1ccccc1CNC(=O)COC(=O)[C@H](Cc1c[nH]c2ccccc12)NC(=O)c1cccs1
  1.2 | -0.57
(83) CC(C)c1nnc(NC(=O)CSc2nnc(NC(=O)c3c(F)cccc3F)s2)s1
  0.18 | -0.02
(84) COC(=O)Cn1ccc(N(C)C)c(C#N)c1=O
  2.1 | 3
(85) CCOc1cc(C(=O)N(C)Cc2cc3ccccc3[nH]c2=O)cc(OCC)c1OCC
  1.5 | -0.35
(86) CCCc1[nH]nc2c1C(c1cc(OC)cc(OC)c1)C(C#N)=C(N)O2 (stereo not drawn)
  0.1 | 0.57
(87) O=C(NCc1ccccc1)C(=O)NCC1OCCN1C(=O)c1ccc(Cl)cc1 (stereo not drawn)
  1.2 | -1.3
(88) Cc1cc(C)n(-c2nc(SCC(=O)O)c3c4c(sc3n2)CCCC4)n1
  1.8 | 1.2
(89) Cc1ccc(CN2CCN(Cc3ccco3)CC2)cc1
  0.16 | -0.12
(90) CCN(Cc1ccccc1)C(=O)CN1C(=O)NC(CC)(c2ccc(F)cc2)C1=O (stereo not drawn)
  0.01 | -0.79

Additional results.
Second line of a record: KCNQ2 pot | KCNQ2 pot baseline
(91) Cc1cccn2c(=O)c3cc(C#N)c(=O)n(-c4c(C)n(C)n(-c5ccccc5)c4=O)c3nc12
  0.48 | -0.08
(92) CCOC(=O)C1CCN(C(=O)CS(=O)(=O)Cc2nc(-c3ccccc3Cl)oc2C)CC1
  1.6 | -1.9
(93) O=C(CSc1nc2ccccc2n1Cc1ccccc1)N/N=C/c1ccco1
  0.11 | -0.1
(94) CC(=O)N(C(C)=O)S(=O)(=O)c1ccc(N=NN2CCOCC2)cc1
  1 | -0.21
(95) Cc1noc(C)c1COc1ccc(CC(=O)NCCc2ccccn2)cc1
  0.57 | -0.12
(96) COc1ccc(/C=N/NC(=O)CSCC(=O)Nc2ccccc2)cc1
  0.36 | 0.33
(97) CCS(=O)(=O)c1ccc(-c2cccc(NC(=O)COc3ccccc3)c2)nn1
  0.97 | 1.9
(98) COc1cccc(C(=O)NNC(=O)C(=O)Nc2ccc(C)cc2)c1
  4.8 | 2.2
(99) COc1cc2[nH]c(C(=O)N3CCN(c4ccc(F)cc4)CC3)cc2c(OC)c1OC
  0.88 | 0.99
(100) Cc1cc(C)n(C(=O)/C(C#N)=N\Nc2ccccc2[N+](=O)[O-])n1
  1 | -0.09
(101) O=C(O)c1ccc2c(c1)C1C=CCC1C(c1ccncc1)N2 (stereo not drawn)
  1.9 | -0.94
(102) Cc1cc(C(=O)OCC(=O)Nc2ncc(C(F)(F)F)cc2Cl)c(C)o1
  0.01 | 0.61
(103) CC(=O)c1sc(N2CCOCC2)nc1-c1ccccc1
  0.07 | 1.4
(104) Cc1ccc(S(=O)(=O)N2CC(C)C(=O)CC2C)cc1 (stereo not drawn)
  1.5 | -1.2
(105) CCOC(=O)C(NCc1ccccc1OC)(NC(C)=O)C(F)(F)F (stereo not drawn)
  0.54 | 0.02
(106) CC1=NN(C(N)=S)C(=O)C1N=Nc1c(Br)cc(Br)cc1Br (stereo not drawn)
  4.3 | 1.2

An excerpt from above in order of the KCNQ2 pot value, descending.
Second line of a record: KCNQ2 pot | KCNQ2 pot baseline
(97) CCS(=O)(=O)c1ccc(-c2cccc(NC(=O)COc3ccccc3)c2)nn1
  0.97 | 1.9
(99) COc1cc2[nH]c(C(=O)N3CCN(c4ccc(F)cc4)CC3)cc2c(OC)c1OC
  0.88 | 0.99
(91) Cc1cccn2c(=O)c3cc(C#N)c(=O)n(-c4c(C)n(C)n(-c5ccccc5)c4=O)c3nc12
  0.48 | -0.08

Screens deposited in PubChem by Johns Hopkins Ion Channel Center.
